# GIV-Gai inh: GIV-Galpha-i interaction inhibition; AID 1224905; percent of control (FP), % (no concentration beside the values); Galpha-i3/FITC-GIV peptide fluorescence polarization, 90 min; stronger effect = lower value; scaled: aluminum fluoride 0%, vehicle 100%; 210,000 compounds, 0.42% hits;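 active = replicate mean at 85% of control or lower, very high polarization wells dropped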;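 also: wells of about 15 µL received 100 nL stock; the first replicate is given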
# Target sequence (P08753 whole entry, looked up): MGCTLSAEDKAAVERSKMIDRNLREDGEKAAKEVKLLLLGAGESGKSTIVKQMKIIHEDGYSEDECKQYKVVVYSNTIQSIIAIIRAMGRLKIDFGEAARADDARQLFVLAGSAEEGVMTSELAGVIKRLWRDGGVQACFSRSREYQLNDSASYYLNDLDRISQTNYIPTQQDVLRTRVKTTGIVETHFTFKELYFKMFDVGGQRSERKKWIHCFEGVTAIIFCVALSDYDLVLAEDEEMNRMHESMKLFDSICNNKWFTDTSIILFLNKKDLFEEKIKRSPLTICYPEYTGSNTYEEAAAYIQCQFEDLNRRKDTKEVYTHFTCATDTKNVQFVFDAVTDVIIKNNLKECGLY
# HCMV UL50-53 inh: inhibitors of HCMV UL50-UL53 nuclear egress complex interaction. AID 1918969. HTRF UL50-UL53 interaction, normalized percent inhibition. inhibition, % (test concentration not listed). 190,000 compounds, 0.15% hits;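 active = both replicates at 50% or more, plus weaker picks with an unusually low signal ratio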;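 also: stock transfer was 100 nL into about 20 µL; 0% = negative control wells and 100% = wells with untagged competitor protein; inactives centre near -12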
# Sa growth 42C: blocks Staphylococcus aureus growth; AID 720641; 170,000 compounds, 0.53% hits; S. aureus RN4220 growth, OD600, 20 h, 42 °C; stronger effect = lower value; relative growth, % (test concentration not listed);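 active = growth at 42 °C up to 50% and 20 or more points under that at 30 °C, or under 10% at both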;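 also: 300 nL library stock went into each well; scaled to the means of positive and negative controls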
# Sa growth 42C second temp: further read-out of Sa growth 42C, marked with its call; relative growth, %; measured here: growth at 30 °C;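 optical density after 20 h as mean of two plates; 100% = untreated growth and lower means inhibition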
# * marks the source's active call; other numbers are inactive results; · = not tested or not shown. This is a random part of the collection. About 0.8% of those tested had a hit in this group.
# Assay codes: A = GIV-Gai inh; B = HCMV UL50-53 inh; C = Sa growth 42C; D = Sa growth 42C second temp
NS(=O)(=O)c1ccc(CNC(=O)c2cccc(Cl)c2)cc1
  A: ·; B: -29.6; C: 97.4; D: 90.4
O=c1n(Cc2ccccc2Cl)c2ccccc2c2nc(-c3ccccc3)nn12
  A: 107.8; B: -7.8; C: 105.9; D: 82.1
Cc1cccc(-n2ccnc2SCC(=O)N2CCC(C(N)=O)CC2)c1C
  A: ·; B: 6.3; C: 89.3; D: 93.2
COc1ccccc1C(=O)NC(=O)Nc1ccc(-n2nc(C(F)(F)F)cc2C(F)(F)F)cc1
  A: 98.9; B: -9.2; C: 99.8; D: 92.6
CC1CCCN(C(=O)Cn2c(=O)c(=O)n(C)c3ccccc32)C1 (configuration not stated)
  A: 98.9; B: -32.7; C: ·; D: ·
CN(Cc1ccccc1)C(=O)CSc1nc2ccccc2c(=O)n1Cc1ccco1
  A: ·; B: -22.0; C: 89.3; D: 88.0
NC(=O)c1nn(CC(=O)N2CCN(Cc3nc4ccccc4s3)CC2)c(=O)c2ccccc12
  A: ·; B: 6.0; C: 98.7; D: 91.6
N#Cc1nc2c(C#N)c(N)n(CCc3ccccc3)c2nc1C#N
  A: ·; B: -24.8; C: 88.2; D: 78.3
COC(=O)CSC1=NS(=O)(=O)c2ccccc2N1
  A: 105.2; B: -28.8; C: 87.4; D: 90.1
CCOc1ccc(-n2nnc(-c3nc(-c4ccc(C(C)C)cc4)cs3)c2N)cc1
  A: 126.7; B: -5.7; C: ·; D: ·
CCC(CC)C(=O)Nc1nnc(S(=O)(=O)N2c3ccccc3CC2C)s1 (configuration not stated)
  A: 102.3; B: -3.9; C: 117.3; D: 102.7
O=C1CS(=O)(=O)C(c2cccnc2)N1Cc1ccc(F)cc1 (configuration not stated)
  A: 98.4; B: -3.7; C: 105.4; D: 113.7
CCOC(=O)c1c(C)[nH]c(/C=N/NC(=S)NCc2ccco2)c1Cc1cccc(Cl)c1
  A: ·; B: -6.1; C: 95.1; D: 94.1
CCCCN(CC)C(=O)c1ccccc1SCC
  A: 108.9; B: 14.9; C: 94.3; D: 88.4
O=C(Nc1cccc(-c2noc(C3CCCC3)n2)c1)c1cc2ccccc2[nH]1
  A: 105.4; B: 6.1; C: ·; D: ·
Nc1cc(N)nc(SCC(=O)N2CCCCC2)n1
  A: 98.8; B: 15.7; C: 104.8; D: 102.1
CCOC(=O)C1CCN(Cc2nc(-c3ccc(Cl)cc3)no2)CC1
  A: 99.2; B: -9.8; C: 102.0; D: 79.9
O=C(NCCCN1CCCCCC1)c1cc2c(=O)oc3ccccc3c2s1
  A: 102.9; B: -11.4; C: 95.9; D: 92.1
Cc1ccccc1CC1SC(=Nc2ccc(Br)cc2)NC1=O (configuration not stated)
  A: 104.8; B: -22.4; C: ·; D: ·
CCc1ccc(C2C3=C(CCCC3=O)Nc3[nH]n(-c4ccccc4)c(=O)c32)cc1 (configuration not stated)
  A: 101.9; B: ·; C: 89.6; D: 76.0
CCCOC(=O)c1ccc(N2COc3ccc4c(C)cc(=O)oc4c3C2)cc1
  A: 102.3; B: -36.9; C: 75.2; D: 92.2
CC1CCCC(C)N1NC(=O)c1cccc(N(C)C)c1 (configuration not stated)
  A: ·; B: -16.2; C: 93.5; D: 93.3
Cn1c(SCc2cccc(C#N)c2)nc2ccccc2c1=O
  A: 100.9; B: -8.3; C: 86.2; D: 91.1
Clc1nc(NCCN2CCOCC2)nc(NC2CCCCC2)n1
  A: 101.9; B: ·; C: 77.0; D: 95.2
O=C(c1ccco1)N1N=C(c2ccccc2)CC1c1ccccc1 (configuration not stated)
  A: 100.7; B: -8.9; C: 73.7; D: 52.8
CCn1c(-c2csc3ccccc23)n[nH]c1=S
  A: 98.2; B: ·; C: 79.9; D: 65.8
Cc1nc2ccccc2c2oc(C(=O)NCCN(C)C3CCCCC3)cc12
  A: 102.8; B: ·; C: 118.5; D: 102.2
CCCCn1c(SC(CC)C(=O)Nc2ccc3c(c2)OCO3)nc2ccsc2c1=O (configuration not stated)
  A: 105.9; B: 4.6; C: 118.9; D: 97.4
O=C(CCc1nc2sc3c(c2c(=O)[nH]1)CCCCC3)N1CCN(C2CCCCC2)CC1
  A: 98.0; B: -14.1; C: ·; D: ·
Cc1ccc2cc3cc(C(=O)NCCCN4CCCCCC4)sc3nc2c1
  A: 101.6; B: ·; C: 89.9; D: 77.2
CCC(=O)N1c2ccc(S(=O)(=O)NC3CCCCC3C)cc2CC1C (configuration not stated)
  A: 104.8; B: ·; C: 102.8; D: 87.4
O=C(NCCSc1c[nH]c2ccccc12)c1ccc(Cl)cc1
  A: 102.3; B: -23.2; C: 111.8; D: 82.1
COc1ccc(C2CCCCCN2C(=O)c2nn(C)c(=O)c3ccccc23)cc1 (configuration not stated)
  A: ·; B: -15.6; C: 85.7; D: 92.9
Cc1cccc(CSc2nnc3n(CCCOC(C)C)c(=O)c4cc(C)ccc4n23)c1
  A: 97.6; B: -5.0; C: ·; D: ·
O=C(c1ccccn1)N1CCC(C(O)(c2ccccc2)c2ccccc2)CC1
  A: ·; B: -13.8; C: 92.8; D: 90.1
CCC(C(=O)Nc1cccc(OC)c1)n1nc(-c2ccccc2)ccc1=O (configuration not stated)
  A: 94.4; B: -31.4; C: ·; D: ·
CCOC(=O)C1SCCN1c1ccc(C)cc1 (configuration not stated)
  A: 104.0; B: 2.8; C: 97.0; D: 91.0
COc1ccc(CNC(=O)CN2N=C(c3ccc(Cl)cc3)CCC2=O)cc1
  A: 108.2; B: ·; C: 97.9; D: 98.9
CN(C)/C=C/C(=O)c1cc(F)ccc1O
  A: 104.6; B: 9.4; C: 50.3; D: 66.3
N/N=c1/nc2sccn2c2ncccc12
  A: 113.3; B: 4.8; C: 49.8; D: 1.2
O=S(=O)(NCC(O)CN1CCOCC1)c1ccc2ccccc2c1 (configuration not stated)
  A: ·; B: -7.6; C: 91.0; D: 96.5
CCOC(=O)c1nc(Nc2ccc(OC)cc2OC)c2c(C)noc2n1
  A: 104.0; B: -13.0; C: ·; D: ·
CN(C)CCn1c(C(=O)O)cc2ccccc21
  A: 101.0; B: -14.1; C: 82.9; D: 79.3
O=C(Nc1ccc2ccccc2c1)c1ccco1
  A: 99.0; B: 28.8; C: 98.0; D: 72.0
CCn1c2ccccc2c2cc(CN3CCN(Cc4cccc(C)c4)CC3)ccc21
  A: 97.0; B: ·; C: 99.9; D: 82.0
CCC1CCCCN1C(=O)c1cnn(-c2ccc(F)cc2)c1-n1cccc1 (configuration not stated)
  A: 103.4; B: -6.2; C: 87.4; D: 99.3
CC(=O)N1c2c(cc(Br)cc2S(=O)(=O)N2CCN(c3ccccc3)CC2)CC1C (configuration not stated)
  A: 95.5; B: -4.2; C: 106.1; D: 96.8
CCc1ccc2nc(NC(=O)c3cc(N4CCOCC4)ccn3)sc2c1
  A: ·; B: -13.6; C: 106.7; D: 88.9
COc1ccc2cc3c(nc2c1)N(S(=O)(=O)c1ccc(C)cc1)CC3
  A: 103.2; B: 8.2; C: ·; D: ·
Cc1nn(-c2ccccc2)c2c1CN(C(=O)Nc1ccc3c(c1)OCO3)C(c1ccc(N(C)C)cc1)c1cccn1-2 (configuration not stated)
  A: 98.6; B: 19.1; C: ·; D: ·

# Molecules shown so far that contain a Cl atom (seven):
# Assay codes: A = GIV-Gai inh; B = HCMV UL50-53 inh; C = Sa growth 42C; D = Sa growth 42C second temp
NS(=O)(=O)c1ccc(CNC(=O)c2cccc(Cl)c2)cc1
  A: ·; B: -29.6; C: 97.4; D: 90.4
O=c1n(Cc2ccccc2Cl)c2ccccc2c2nc(-c3ccccc3)nn12
  A: 107.8; B: -7.8; C: 105.9; D: 82.1
CCOC(=O)c1c(C)[nH]c(/C=N/NC(=S)NCc2ccco2)c1Cc1cccc(Cl)c1
  A: ·; B: -6.1; C: 95.1; D: 94.1
CCOC(=O)C1CCN(Cc2nc(-c3ccc(Cl)cc3)no2)CC1
  A: 99.2; B: -9.8; C: 102.0; D: 79.9
Clc1nc(NCCN2CCOCC2)nc(NC2CCCCC2)n1
  A: 101.9; B: ·; C: 77.0; D: 95.2
O=C(NCCSc1c[nH]c2ccccc12)c1ccc(Cl)cc1
  A: 102.3; B: -23.2; C: 111.8; D: 82.1
COc1ccc(CNC(=O)CN2N=C(c3ccc(Cl)cc3)CCC2=O)cc1
  A: 108.2; B: ·; C: 97.9; D: 98.9

# (cont.)
# Assay codes: A = GIV-Gai inh; B = HCMV UL50-53 inh; C = Sa growth 42C; D = Sa growth 42C second temp
CCN1CCCC1CNC(=O)C1c2ccccc2C(=O)N(CCOC)C1c1ccc(F)cc1 (configuration not stated)
  A: 96.2; B: ·; C: 95.2; D: 87.0
COc1ccccc1N1CCN(C(=O)c2c(C)oc3ncn(C)c(=O)c23)CC1
  A: 100.6; B: ·; C: 85.3; D: 90.8
O=C1CN(C(=O)c2ccc3c(c2)OCO3)C(c2ccccc2)c2cc(F)ccc2N1 (configuration not stated)
  A: 103.7; B: -1.3; C: 98.3; D: 101.9
CN(C(=O)Nc1cn(C)c(=O)c2ccccc12)c1ccccc1
  A: 100.8; B: ·; C: 97.7; D: 91.0
CN(CC(=O)Nc1ccc(S(=O)(=O)N2CCCC2)cc1)CC(=O)Nc1ccc(F)c(F)c1F
  A: ·; B: 5.6; C: 104.1; D: 102.7
Cc1cc2c(cc3n2CC(C)(C(=O)NC2CCCCC2)N(Cc2ccc(Cl)cc2)C3=O)o1 (configuration not stated)
  A: 102.8; B: -21.6; C: ·; D: ·
Cc1ccc(NC(=O)C(C)Nc2cccc(-c3nnc4n3CCCCC4)c2)cc1 (configuration not stated)
  A: ·; B: -30.6; C: 100.8; D: 92.0
COc1ccc(Cl)cc1NC(=O)CCC(=O)c1ccc(C)cc1
  A: 112.8; B: ·; C: 120.8; D: 91.7
CCCn1c(SCC(=O)N2CCN(S(=O)(=O)c3ccc(Cl)cc3)CC2)n[nH]c1=O
  A: ·; B: -15.5; C: 114.0; D: 96.3
Cc1nc2cc(-c3ccccc3)nn2c(C)c1CC(=O)NC1CCCC1
  A: 95.6; B: ·; C: 119.7; D: 85.1
COc1ccc(NCc2cc(=O)n3c(-c4ccccc4)csc3n2)cc1
  A: ·; B: 1.3; C: 121.9; D: 92.2
CSc1ncc(Cl)c(C(=O)N(Cc2ccccc2Cl)C2CCS(=O)(=O)C2)n1 (configuration not stated)
  A: 107.9; B: 6.3; C: 103.0; D: 92.6
CC(C)CC(=O)Nc1cc(C(F)(F)F)cc(C(F)(F)F)c1
  A: 98.7; B: -18.1; C: 87.5; D: 41.2
O=C(NC1CC1)c1ccc2c(c1)N(Cc1ccccc1)C(=O)c1ccccc1S2
  A: 97.1; B: ·; C: 82.3; D: 86.6
CCCc1cc(=O)oc2c(C)c(OC(C)C(=O)O)ccc12 (configuration not stated)
  A: 95.2; B: ·; C: 76.7; D: 84.6
N#C/C(=C(\O)c1ccccc1)c1nc2ccccc2c(=O)[nH]1
  A: ·; B: 0.5; C: 108.7; D: 86.7
CC(C)NC(=O)CN1C(c2ccccc2)=CC(c2ccccc2)n2nnnc21 (configuration not stated)
  A: 102.7; B: -15.4; C: ·; D: ·
COc1ccccc1C(=O)NC(=S)c1c(C)nc2sccn12
  A: ·; B: -81.1; C: 82.6; D: 80.3
COc1cccc(CSc2nc(-c3ccccc3F)nc3c2Cc2c(CO)cnc(C)c2O3)c1
  A: 101.2; B: ·; C: 98.3; D: 94.9
Cc1ccc2nc(-c3ccc(NC(=O)c4ccc(S(=O)(=O)N5CCc6ccccc65)cc4)cc3)sc2c1
  A: 107.1; B: -25.6; C: ·; D: ·
Cc1cn(CCC#N)nc1C=Nc1ccc(O)cc1
  A: ·; B: -6.8; C: 113.9; D: 81.4
CC1CCCC(NC(=O)C2CCC(Cn3c(=O)[nH]c4ccccc4c3=O)CC2)C1C (configuration not stated)
  A: 101.1; B: ·; C: 102.4; D: 91.3
Cc1ccc2c(C)c(C(=O)N3CCC(c4nc5ccccc5s4)CC3)oc2c1C
  A: 97.8; B: -16.0; C: 99.6; D: 85.4
COc1ccccc1N1CCN(C(=O)c2[nH]nc3c2CCc2ccccc2-3)CC1
  A: 93.3; B: 2.9; C: ·; D: ·
Cc1ccc(Cn2nnc(-c3ccccc3C)n2)cc1
  A: 104.8; B: -6.2; C: 98.2; D: 92.9
CSC1=NCCN1C(=O)Cc1cccs1
  A: 106.4; B: ·; C: 132.4; D: 85.5
CCOc1ccccc1NC(=O)C1=C(C)Nc2ncnn2C1c1ccccn1 (configuration not stated)
  A: 98.4; B: ·; C: 78.1; D: 92.0
Cc1ccc(CNS(=O)(=O)c2cnc(N)nc2)cc1
  A: 109.0; B: ·; C: 104.1; D: 90.9
CC(=O)c1cccc(NC(=O)c2sc3nc4c(cc3c2N)CCCC4)c1
  A: 100.6; B: -43.3; C: 110.5; D: 82.2
CNS(=O)(=O)c1cccc(C(=O)OCC(N)=O)c1
  A: ·; B: -11.3; C: 91.2; D: 87.2
CC(C)Oc1nsnc1N1CCOCC1
  A: 99.2; B: -25.7; C: 96.3; D: 90.0
CCCc1c(C)[nH]c2ccc(C(=O)O)cc2c1=S
  A: 92.0; B: -44.8; C: 37.4; D: 30.6
CCOC(=O)c1ccc(NC(=O)N2CCOc3ccccc32)cc1
  A: 101.0; B: -5.5; C: 105.2; D: 87.9
Cc1nnc(SCCCN2C(=O)c3ccccc3C2=O)o1
  A: 99.1; B: -45.6; C: 106.2; D: 83.1
